Source: PubChem BioAssay
gsp antag: gsp mutant antagonism; gsp-mutant cells, cAMP HTRF, 30 min; control for the full effect not named in the record; Potency, µM (series often up to 76.9 µM), inactives show top-dose activity change, negative = inhibition, actives largely listed as inhibitors; 340,000 compounds, 0.4% hits; AID 624288; active = falling curve of any shape with a large fitted effect; inconclusive = falling curve, mostly with a smaller effect; inactive = flat or rising curve; cell line not stated here;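 also: intracellular cAMP measured with PDE inhibitor Ro 20-1724 present during compound exposure; potency is read from the fitted curve at half-maximal effect; % is scaled to controls: 0 for no effect and ±100 for the full control effect; nearly all actives have a fitted effect of over 65% in size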
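Cells, 2000/well, grown 16–24 h in DMEM 10% FBS with 0.5 mg/ml G418, then compounds plus […] (300 uM addition stock), 30 min at 37C. cAMP read by HTRF (cAMP-d2 and anti-cAMP antibody-K in lysis buffer) after 30 min RT.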
D2 ag: agonists of human D2 dopamine receptor (beta-arrestin); P14416; 360,000 compounds, 0.084% hits; activation, % (no concentration beside the values); DiscoveRx PathHunter D2 beta-arrestin, luminescence, 90 min; 100% = 57 uM dopamine signal; in the data active = activation above about 40%; inconclusive = about 15% to 40%; inactive = below about 15%; also: compound concentration not given in the record; the text of the record calls up to 30% inactive
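Agonist mode: compounds alone added to overnight-plated D2 PathHunter cells for 90 min at 37 C, with 57 uM final dopamine (EC100) defining full response. Beta-arrestin recruitment detected by chemiluminescent reagent, read after 1 h at ambient temperature.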
Six1-Eya2 blk: blocks human Six1 binding to Eya2; 360,000 compounds, 0.56% hits; AID 651725; AlphaScreen GST-Six1/His-Eya2 binding, biochemical; stronger effect = lower value; control for the full effect not named in the record; activity change, % (concentration not given with the values); in the data active = activity change below about -65%; inconclusive = about -30% to -65%; inactive = above about -30%; also: % is scaled to controls: 0 for no effect and ±100 for the full control effect
Target sequence (O00167 whole entry, looked up): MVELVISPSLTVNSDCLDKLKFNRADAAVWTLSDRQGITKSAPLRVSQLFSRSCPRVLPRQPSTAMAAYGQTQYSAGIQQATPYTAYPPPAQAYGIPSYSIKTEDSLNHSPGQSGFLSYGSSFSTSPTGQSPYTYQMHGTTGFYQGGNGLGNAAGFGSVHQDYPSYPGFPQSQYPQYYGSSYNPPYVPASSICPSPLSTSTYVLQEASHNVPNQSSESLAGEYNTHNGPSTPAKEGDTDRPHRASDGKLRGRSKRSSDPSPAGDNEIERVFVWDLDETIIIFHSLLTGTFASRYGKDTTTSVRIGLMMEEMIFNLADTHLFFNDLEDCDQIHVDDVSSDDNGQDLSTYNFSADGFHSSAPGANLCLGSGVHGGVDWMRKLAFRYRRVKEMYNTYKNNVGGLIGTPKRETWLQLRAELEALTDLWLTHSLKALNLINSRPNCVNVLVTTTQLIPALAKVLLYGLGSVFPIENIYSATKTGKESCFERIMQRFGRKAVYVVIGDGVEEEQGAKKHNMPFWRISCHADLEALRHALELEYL
Target sequence (Q15475 whole entry, looked up): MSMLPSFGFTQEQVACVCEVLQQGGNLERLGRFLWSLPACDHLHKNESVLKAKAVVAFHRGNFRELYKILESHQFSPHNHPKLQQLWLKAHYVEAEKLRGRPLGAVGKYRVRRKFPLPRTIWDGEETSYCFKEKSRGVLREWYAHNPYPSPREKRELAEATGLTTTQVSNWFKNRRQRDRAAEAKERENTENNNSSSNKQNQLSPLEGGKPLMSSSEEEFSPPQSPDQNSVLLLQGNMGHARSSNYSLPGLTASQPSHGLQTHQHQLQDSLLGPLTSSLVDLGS
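GST-Six1 + His-Eya2 (5X stock: 250/500 nM); Tris pH 8.0, 300 mM NaCl, 0.05% BSA, 0.02% Tween 20; GSH donor/Ni acceptor beads; 1 h 37 °C dark; AlphaScreen readout.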
gsp ag: activates gsp, the McCune-Albright syndrome mutation | gsp mutant cells, cAMP HTRF, 30 min; control for the full effect not named in the record | Potency, µM (top dose mostly 76.9 µM), for the others: at the highest dose activation (cAMP increase), hits mostly activators | 340,000 compounds, 0.13% hits; active = well fitted activation curve with a large enough effect; inconclusive = small, poorly fitted or top-dose-only effect, or another doubt; inactive = no such curve, though single readings can be large or run the other way; cell line not stated here;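 also: phosphodiesterase inhibitor Ro 20-1724 added with compounds to block cAMP breakdown; potency is read from the fitted curve at half-maximal effect; nearly all actives have a fitted effect of over 60% in size; about a fifth of the inactives were tested at one dose only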
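Cells stably selected in G418 were plated at 2000/well, grown 16-24 hr, then given compounds in DMSO with the PDE inhibitor […] (300 uM solution added) for 30 min at 37C; cAMP was read by HTRF.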
D2 PAM: human D2 receptor positive allosteric modulation; DiscoveRx D2 beta-arrestin cells, luminescence, 90 min; 100% = 57 uM dopamine signal; potentiation, % (concentration not given with the values); 360,000 compounds, 0.23% hits; AID 624464; active = potentiation of 50% or more; inconclusive = 30% to 50%; inactive = 30% or less;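 also: tested on top of an EC20 dose of dopamine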
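PathHunter beta-arrestin assay in DiscoveRx D2 cells. Compounds were added with an EC20 of dopamine (50 nM final) for 90 min at 37 deg C. Luminescence was read 1 h after detection reagent, with 57 uM dopamine as the EC100 control.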
CtBP-E1A blk: CtBP/E1A binding inhibition; AlphaScreen GST-E1A/His-CtBP binding, 1536-well; stronger effect = lower value; control for the full effect not named in the record; activity change, % (concentration not given with the values); 340,000 compounds, 0.49% hits; in the data active means activity change below about -65%; inconclusive means about -30% to -65%; inactive means above about -30%; also: % is scaled to controls: 0 for no effect and ±100 for the full control effect
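GST-E1A and His-tagged CtBP (125 nM each as 5X stock) were preincubated with pin-transferred compound for 2 h at 37 °C in the dark, then glutathione donor and nickel acceptor beads were added for 1 h before AlphaScreen reading.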
Starred values were filed as active, the others as inactive; ? = inconclusive; . = no result given; [ ] = another dose, or the depositor's remark. Rows are unselected, and some 1.4% of all compounds hit somewhere here.

Key to letters: A = gsp antag; B = D2 ag; C = Six1-Eya2 blk; D = gsp ag; E = D2 PAM; F = CtBP-E1A blk
Molecule: CN(C)c1ccc(C(=O)/C=C/c2ccc(Br)cc2)cc1
  A: -27% | B: -3.4 | C: -4 | D: -2% | E: -12 | F: .

Molecule: COc1cc(CCc2ccccc2)c(C(=O)O)c(O)c1C/C=C(/C)CCC=C(C)C
  A: -5% | B: 0.8 | C: -5 | D: . | E: . | F: 0

Molecule: O=C(CC1(O)C(=O)N(C/C=C/c2ccccc2)c2ccccc21)c1ccccn1 (stereo not given)
  A: 3% | B: -1.9 | C: -2 | D: 7% | E: -4 | F: 3

Molecule: Cc1ccccc1C([O-])=Nc1ccc[n+](-c2nc3ccccc3nc2NS(=O)(=O)c2ccccc2)c1
  A: -11% | B: -2.6 | C: -4 | D: 13%[15.4 µM] | E: -4 | F: -11

Molecule: CCOC(=O)c1sc2nc3c(cc2c1N)C(=O)CC(C)(C)C3
  A: -7% | B: 0.1 | C: -2 | D: -18% | E: -4 | F: 14

Molecule: Cc1nnc(SCC(=O)N2CC(=O)Nc3ccccc32)n1Cc1ccccc1
  A: 7% | B: -2.6 | C: 8 | D: -34%[inhibitor] | E: -19 | F: 1

Molecule: COc1cc(NS(=O)(=O)c2ccc(N/C=C\C(=O)c3ccc(C)cc3)cc2)nc(OC)n1
  A: ? | B: -1.5 | C: -25 | D: -39%[inhibitor] | E: -18 | F: -10

Molecule: CCCCn1nc(C(=O)NCC(c2cccs2)N2CCOCC2)c2ccccc2c1=O (stereo not given)
  A: ? | B: 4.7 | C: 1 | D: -2% | E: 1 | F: -7

Molecule: CCc1ccc(C2NC(c3ccc(CC)cc3)C([N+](=O)[O-])C(C)(C)C2[N+](=O)[O-])cc1 (stereo not given)
  A: 1% | B: -3.5 | C: -5 | D: 18% | E: 4 | F: -2

Molecule: CC(C)CN1C(=O)c2ccc(C(=O)Nc3ccc(O)cc3C(=O)O)cc2C1=O
  A: -20% | B: -1.2 | C: 3 | D: 10%[15.4 µM] | E: -4 | F: 9

Molecule: O=C(Nc1ccccc1)OC1C2CCC1C(N1CCCCC1)CC2 (stereo not given)
  A: 1% | B: -1.1 | C: 8 | D: 30% | E: -46 | F: -1

Molecule: NC(=O)c1ccsc1NC(=O)COC(=O)CCc1ccccc1
  A: . | B: 1.8 | C: 0 | D: -4% | E: -6 | F: 6

Molecule: CCOC(=O)Cc1c(C)nc2cc(-c3ccc(Cl)cc3)[nH]n2c1=O
  A: 2% | B: 1.8 | C: 0 | D: 0% | E: 0 | F: -10

Molecule: O=C(O)Cc1c(C(=O)O)[nH]c2ccc(C(=O)O)cc12
  A: 3% | B: 0.2 | C: 3 | D: -1%[15.4 µM] | E: -1 | F: 1

Molecule: O=C(NCc1cccnc1)c1cc(Cl)ccc1[N+](=O)[O-]
  A: 3% | B: -0.1 | C: 3 | D: -28% | E: 4 | F: -20

Molecule: O=C(NCCc1ccccc1)c1cccc(NC(=O)C2CCC2)c1
  A: 7% | B: 3.1 | C: 3 | D: . | E: -3 | F: 4

Molecule: CN(C)S(=O)(=O)c1ccc(NC(=O)CN2CCN(c3ccccn3)CC2)cc1
  A: -11% | B: ? | C: 24 | D: 18% | E: 15 | F: 15

Molecule: COc1ccc(CNC(=O)C2CCN(C(=O)c3ccc(-c4ccccc4)cc3)CC2)cc1
  A: -14% | B: 6.5 | C: -5 | D: -2%[15.4 µM] | E: -3 | F: -6

Molecule: COc1cc2ccccc2cc1C(=O)Nc1ccc(C)cn1
  A: -9% | B: -2.2 | C: 5 | D: ? | E: -10 | F: 0

Molecule: COc1ccc(NC(=O)CNC(c2ccccc2)c2ccccc2)cc1
  A: -9% | B: -0.3 | C: -2 | D: 4% | E: -4 | F: .

Molecule: COc1cccc(N=c2oc3ccc(OC)cc3cc2-c2nc3ccccc3[nH]2)c1
  A: -2% | B: -2.8 | C: -1 | D: 24% | E: -5 | F: -11

Molecule: Nc1ncnc2sc3c(c12)CCNC3
  A: 17% | B: -6.2 | C: 2 | D: 2% | E: -16 | F: -2

Molecule: O=C(CCc1ccccc1)N1CCN(S(=O)(=O)c2cccs2)CC1
  A: 7% | B: -4.3 | C: 4 | D: -30%[inhibitor] | E: -1 | F: 13

Molecule: Cc1cc(C)nc(-n2nc(C)cc2NC(=O)C(C)C)n1
  A: 1% | B: -2.7 | C: -1 | D: 5% | E: -8 | F: .

Molecule: COC(=O)c1cc(C)nc(Nc2nc(C(N)Cc3ccc(F)cc3)cs2)n1 (stereo not given)
  A: . | B: -1.7 | C: -29 | D: . | E: -3 | F: ?

Molecule: Cc1cc(=O)oc(C)c1C(=O)n1nc(C)c2c1C[C@@H]1[C@H]2C1(C)C
  A: -12% | B: -4.6 | C: 9 | D: 5% | E: 0 | F: 12

Molecule: CCOc1ccccc1/C=N/Nc1ccccc1[N+](=O)[O-]
  A: 2% | B: 0.2 | C: -23 | D: -10% | E: 0 | F: -9

Molecule: O=C(Nc1ccc(Nc2ccccc2)cc1)c1cccc(F)c1
  A: -17% | B: -3.1 | C: -17 | D: -15% | E: -6 | F: -14

Molecule: O=C(CCCSc1nnc(-c2cccs2)n1CC1CCCO1)c1ccccc1 (stereo not given)
  A: ? | B: -0.9 | C: -2 | D: -24% | E: -16 | F: 2

Molecule: COCCN(C(=O)CCC(=O)Nc1ccccn1)C(C(=O)NC(C)C)c1ccc(C)cc1 (stereo not given)
  A: 7% | B: -1.0 | C: 1 | D: 11% | E: -2 | F: -1

Molecule: CCOc1ccccc1-n1c(SCC(N)=O)nc2ccccc2c1=O
  A: 4% | B: -4.5 | C: -1 | D: 27% | E: -17 | F: -2

Molecule: Fc1ccc(NC(=S)N2CCN(c3ccccn3)CC2)cc1Cl
  A: 2% | B: -4.7 | C: -2 | D: -11% | E: 0 | F: -3

Molecule: COc1ccc(CCC(=O)Nc2ccc(C)c(S(=O)(=O)N(C)C)c2)cc1OC
  A: -7% | B: -1.6 | C: -1 | D: -22% | E: -10 | F: -7

Molecule: Cc1ccc(N2CC(C(=O)Nc3cc(S(=O)(=O)N4CCCCC4)ccc3C)CC2=O)cc1 (stereo not given)
  A: . | B: -4.8 | C: 40 | D: 6% | E: -20 | F: -14

Molecule: O=C(NC12CC3CC(CC(C3)C1)C2)N1CCC(n2nnc3ccccc32)CC1
  A: 7% | B: -4.7 | C: 0 | D: 7% | E: -4 | F: 3

Molecule: Cc1cc(S(=O)(=O)Nc2nc(CN3CCOCC3)nc3sc4c(c23)CCC4)ccc1F
  A: ? | B: 0.7 | C: 0 | D: -28%[15.4 µM] | E: -26 | F: 3

Molecule: Cn1c(SCC(=O)NNC(=O)Cc2ccccc2)nnc1-c1ccccc1
  A: 12% | B: -2.8 | C: 8 | D: 9% | E: 9 | F: 13

Molecule: C/C(CCc1ccc2c(c1)OCO2)=N\N=C(/N)SC1CC(=O)N(c2ccccc2F)C1=O (stereo not given)
  A: -6% | B: -2.9 | C: -10 | D: 10% | E: 22 | F: -3

Molecule: C=CCNC(=O)C(=O)c1c(-c2ccccc2)[nH]c2ccccc12
  A: 4% | B: -6.6 | C: 3 | D: -36%[inhibitor] | E: -3 | F: 5

Molecule: Cc1cccc(-c2nnc(SCC#N)n2C)c1
  A: 8% | B: -4.1 | C: 5 | D: 14% | E: 1 | F: 6

Molecule: O=C(CSc1nnc(Cn2c(=O)sc3ccccc32)n1CCc1ccccc1)N1CCCC1
  A: 0% | B: -0.5 | C: -7 | D: 11% | E: -1 | F: 3

Molecule: CC1Sc2ccc(C(=O)Nc3ccccc3OC(F)F)cc2NC1=O (stereo not given)
  A: -34% | B: 4.3 | C: 0 | D: -28% | E: 22 | F: 10

Molecule: COc1ccc(CSc2nc(N3CCOCC3)c3c(c2C#N)CC(C)(C)OC3)cc1
  A: -18% | B: 0.4 | C: -1 | D: 8% | E: -4 | F: 3

Molecule: COc1cccc(NC(=S)NNC(=O)C(C)n2nc(C)c([N+](=O)[O-])c2C)c1 (stereo not given)
  A: -10% | B: 0.8 | C: -2 | D: -75%[inhibitor] | E: -9 | F: 12

Molecule: COc1ccc(CCC(=O)NCCOc2ccc(Cl)cc2)cc1
  A: -3% | B: -0.7 | C: 1 | D: 3%[15.4 µM] | E: -4 | F: -1

Molecule: CCC1(c2ccc(F)cc2)NC(=O)N(CC(=O)Nc2ccc(-c3nc4ccc(C)cc4s3)cc2)C1=O (stereo not given)
  A: -3% | B: 0.9 | C: 0 | D: 6% | E: 3 | F: -4

Molecule: CCOc1cc(/C=C\c2nc(O)c([N+](=O)[O-])c(=O)[nH]2)ccc1OC(C)C
  A: 12% | B: -0.9 | C: 5 | D: -42%[inhibitor][15.4 µM] | E: -4 | F: 5

Molecule: Cc1c(C=O)c2ccccc2n1CC(=O)NC(C)c1ccccc1 (stereo not given)
  A: -6% | B: 0.2 | C: -6 | D: ? | E: -7 | F: 1

Molecule: CCCn1c(=O)[nH]c(=O)c2c1nc(-c1ccc(OC(F)(F)C(F)C(F)(F)F)cc1)n2CCOC (stereo not given)
  A: -20% | B: -4.0 | C: -11 | D: 19% | E: -2 | F: 0

Molecule: CC1CCCN(c2ccc([N+](=O)[O-])s2)C1 (stereo not given)
  A: -4% | B: -2.8 | C: -3 | D: -40%[inhibitor] | E: -9 | F: .

Laid out differently: entries from further up.
CCOc1ccccc1/C=N/Nc1ccccc1[N+](=O)[O-]
  gsp antag: 2%
  D2 ag: 0.2
  Six1-Eya2 blk: -23
  gsp ag: -10%
  D2 PAM: 0
  CtBP-E1A blk: -9
O=C(Nc1ccc(Nc2ccccc2)cc1)c1cccc(F)c1
  gsp antag: -17%
  D2 ag: -3.1
  Six1-Eya2 blk: -17
  gsp ag: -15%
  D2 PAM: -6
  CtBP-E1A blk: -14
O=C(CCCSc1nnc(-c2cccs2)n1CC1CCCO1)c1ccccc1 (stereo not given)
  gsp antag: ?
  D2 ag: -0.9
  Six1-Eya2 blk: -2
  gsp ag: -24%
  D2 PAM: -16
  CtBP-E1A blk: 2

(more compounds)
Key to letters: A = gsp antag; B = D2 ag; C = Six1-Eya2 blk; D = gsp ag; E = D2 PAM; F = CtBP-E1A blk
Molecule: Cc1cccc(C)c1NC(=O)CC1SC2=NCCN2C1=O (stereo not given)
  A: -8% | B: -4.0 | C: 0 | D: 0% | E: -3 | F: -4

Molecule: COc1ccc(C2C(=O)N(C3CCCCC3)CC(=O)N2CCc2ccccc2)cc1OC (stereo not given)
  A: -1% | B: -3.0 | C: -1 | D: -3% | E: -5 | F: 1

Molecule: COc1ccc(CN(CC(=O)NCc2ccccc2)C(=O)CCC(=O)Nc2ccccn2)cc1
  A: -4% | B: -3.2 | C: -2 | D: -17% | E: -4 | F: 2

Molecule: COCCn1c(=O)[nH]c2cc(C(=O)NC3CCCCCC3)ccc2c1=O
  A: 13% | B: -3.4 | C: 5 | D: 1% | E: -4 | F: 2

Molecule: COc1ccc(C2=C(N)c3ccccc3C2=O)cc1
  A: -13% | B: -0.9 | C: -19 | D: -1% | E: -9 | F: 8

Molecule: CCOCc1c(C(=O)N2CCN(CC(=O)Nc3ccc(F)cc3)CC2)oc2ccccc12
  A: 10% | B: -3.8 | C: -1 | D: 3% | E: 4 | F: -2
